Screening data as filed in PubChem.
PINK1 modulator: A Quantitative High throughput Screen to Identify Chemical Modulators of PINK1 Expression; PINK1 immunofluorescence, high-content cytometry, 24 h; Potency, µM (top dose mostly 76.6 µM), inactives show top-dose activation (PINK1 increase), hits mostly activators; 410,000 tested, 0.2% active; active = well fitted activation curve with a large enough effect; inconclusive = small, poorly fitted or top-dose-only effect; inactive = flat fitted curve, though single readings scatter; cell line not stated here;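 further: potency means the concentration at half of the fitted maximal effect; % of control where 0% means no effect; nearly all actives have a fitted effect of over 65% in size; a mitochondrial uncoupler was the plate control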
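A stable cell line was treated with compounds at 5 concentrations for 24 hours, with CCCP as control. PINK1 levels and mitochondrial localization were measured by immunofluorescence with mitochondrial, cell and nuclear markers after fixation, read by laser-scanning cytometry.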
D2 ag: Beta-Arrestin HTS for Positive Allosteric Modulators of the Human D2 Dopamine Receptor: Agonists; activation, % (test concentration not listed); 360,000 tested, 0.084% active; AID 624465, 2012; DiscoveRx PathHunter D2 beta-arrestin, luminescence, 90 min; 100% = 57 uM dopamine signal; in the data active = activation above about 40%; inconclusive = about 15% to 40%; inactive = below about 15%; further: compound concentration not given in the record; the text of the record calls up to 30% inactive
Target sequence (P14416 whole entry, looked up): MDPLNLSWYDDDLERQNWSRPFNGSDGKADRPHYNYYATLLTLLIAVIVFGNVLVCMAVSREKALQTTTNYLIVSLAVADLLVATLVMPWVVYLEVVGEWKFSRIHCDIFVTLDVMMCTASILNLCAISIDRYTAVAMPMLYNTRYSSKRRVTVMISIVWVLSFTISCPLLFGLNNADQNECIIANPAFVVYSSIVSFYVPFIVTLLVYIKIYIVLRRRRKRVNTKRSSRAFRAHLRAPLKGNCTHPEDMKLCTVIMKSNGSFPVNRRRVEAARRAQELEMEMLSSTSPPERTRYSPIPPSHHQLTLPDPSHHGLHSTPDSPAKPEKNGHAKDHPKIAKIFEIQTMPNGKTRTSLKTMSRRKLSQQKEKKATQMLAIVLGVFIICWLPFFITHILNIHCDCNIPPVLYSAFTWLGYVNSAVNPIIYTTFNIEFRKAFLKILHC
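Agonist mode: compounds alone added to overnight-plated D2 PathHunter cells for 90 min at 37 C, with 57 uM final dopamine (EC100) defining full response. Beta-arrestin recruitment detected by chemiluminescent reagent, read after 1 h at ambient temperature.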
Menin MLL FP FL: qHTS Assay for Inhibitors Targeting the Menin-MLL Interaction in MLL Related Leukemias: Competition With Fluorescein Labeled MLL-derived Peptide; Fluorescence polarization, fluorescein-MLL peptide displacement from menin; AID 1766, 2009; FP activity change, % at 61.4 µM; 290,000 tested, under 10 active; inconclusive = falling polarisation curve, or a change in total fluorescence; inactive = total fluorescence flat and polarisation flat or rising; no compound was filed as active; the % refers to the polarisation; negative = inhibition;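 further: % of control where 0% means no effect; inhibitors lower the polarisation; unlabelled MLL peptide was the positive control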
gsp agonist: qHTS for Agonist of gsp, the Etiologic Mutation Responsible for Fibrous Dysplasia/McCune-Albright Syndrome: qHTS; gsp mutant cells, cAMP HTRF, 30 min; control for the full effect not named in the record; Potency, µM (top dose mostly 76.9 µM), without a hit: top-dose activation (cAMP increase), most hits filed as activators; 340,000 tested, 0.13% active; AID 624287, 2012; active = well fitted activation curve with a large enough effect; inconclusive = small, poorly fitted or top-dose-only effect, or another doubt; inactive = no such curve, though single readings can be large or run the other way; cell line not stated here;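 further: phosphodiesterase inhibitor Ro 20-1724 added with compounds to block cAMP breakdown; potency means the concentration at half of the fitted maximal effect; nearly all actives have a fitted effect of over 60% in size; about a fifth of the inactives were tested at one dose only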
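Cells in DMEM/10% FBS with G418 were pretreated with compounds in DMSO plus […] (300 uM stock) for 30 min at 37C. cAMP was measured by HTRF (cAMP-d2 plus anti-cAMP antibody-K) after 30 min at room temperature.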
gsp antag: qHTS for Antagonists of gsp, the Etiologic Mutation Responsible for Fibrous Dysplasia/McCune-Albright Syndrome: qHTS; Potency, µM (doses to about 76.9 µM), for the others: at the highest dose activity change, negative = inhibition, hits mostly inhibitors; 340,000 tested, 0.4% active; gsp-mutant cells, cAMP HTRF, 30 min; control for the full effect not named in the record; AID 624288, 2012; active = falling curve of any shape with a large fitted effect; inconclusive = falling curve, mostly with a smaller effect; inactive = flat or rising curve; cell line not stated here;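 further: intracellular cAMP measured with PDE inhibitor Ro 20-1724 present during compound exposure; potency means the concentration at half of the fitted maximal effect; on the % scale 0 is the no-effect control and ±100 the full control effect; nearly all actives have a fitted effect of over 65% in size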
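G418-selected cells were plated in DMEM/10% FBS for 16-24 h at 37C, then treated with compounds plus the PDE inhibitor […] (300 uM solution added) for 30 min at 37C. Intracellular cAMP was measured by HTRF after 30 min lysis at room temperature.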
ClpP mod: qHTS Assay for Activators of ClpP. 340,000 tested, 1.9% active. Potency, µM (top dose mostly 57.5 µM), for the others: at the highest dose activity change, negative = active. purified B. subtilis ClpP, FRET peptide cleavage, 20 min. ATP-dependent Clp protease proteolytic subunit (Bacillus subtilis (strain 168)), P80244. AID 651965, 2013; active = well fitted falling curve with a large enough effect; inconclusive = small, poorly fitted or top-dose-only effect; inactive = no such curve, though single readings can be large or run the other way; further: potency means the concentration at half of the fitted maximal effect; the source files actives as falling curves though it sought activators and does not explain the sign; nearly all actives have a fitted effect of over 65% in size; many hits overshoot -100%
Target sequence (P80244 whole entry, looked up): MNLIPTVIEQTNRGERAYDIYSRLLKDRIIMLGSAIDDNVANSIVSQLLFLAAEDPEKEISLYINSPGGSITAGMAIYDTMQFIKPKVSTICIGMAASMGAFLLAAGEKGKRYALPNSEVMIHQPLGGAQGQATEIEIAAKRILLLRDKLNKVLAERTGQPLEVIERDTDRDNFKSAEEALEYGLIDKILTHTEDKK
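FRET quenching reversal measured ClpP activation: 10 microg/mL B. subtilis ClpP at pH 8 with the FRET-FV decapeptide, read at 430 nm after 320 nm excitation. The 20-min minus 0-min signal was scaled between DMSO/no-enzyme wells and ADEP (5.8 microM final).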
Sfp inh: qHTS Assay for Inhibitors of Bacillus subtilis Sfp phosphopantetheinyl transferase (PPTase) | Potency, µM, for the others: max response, negative = inhibition, usual class: inhibitors | AID 1490, 2009 | 310,000 tested, 3.5% active | 4'-phosphopantetheinyl transferase ffp (Bacillus subtilis), Q9F4F7 | Biochemical Sfp PPTase activity, qHTS; active means well fitted inhibition curve with a large enough effect; inconclusive means small, poorly fitted or top-dose-only effect, or another doubt; inactive means no such curve, though single readings can be large or run the other way;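 further: the enzyme is Sfp with the accession as filed and its product quenches rhodamine fluorescence; potency means the concentration at half of the fitted maximal effect; 0% = enzyme reaction without inhibitor and -100% = no enzyme wells; top concentration of the series not given in the record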
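Sfp 15 nM + cpd, 15 min RT; start w/ rhodamine-CoA 5 uM, BHQ-2-YbbR 12.5 uM (final); 50 mM Hepes pH 7.6, 10 mM MgCl2, 0.01% NP-40, 0.01% BSA; read 525/598 nm at 0 and 30 min.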
Numbers without * were called inactive; ? = inconclusive; / = not tested or not shown; & = joins results of further samples; [ ] = remark or other dose. Outcome played no part in choosing rows. About 5.1% of those tested had a hit in this group.

SMILES	PINK1 modulator	D2 ag	Menin MLL FP FL	gsp agonist	gsp antag	ClpP mod	Sfp inh
O=C(NCc1ccc(F)cc1)C1CCCN(S(=O)(=O)c2cccnc2)C1 (configuration not stated)	-1.4%	1.8	0.2	17%	1%	-0.8%	20%
O=C1CN(C(=O)COc2ncnc3ccccc23)c2ccccc2N1	-1.4%	-3.2	?	?	-1%	?	14%
COc1ccc(CN2CC(C(=O)N3CCOCC3)CC2=O)cc1 (configuration not stated)	-0.9%	-2.4	-1.2	-22%	8%	-3.2%	15%
CCOc1ccc(OCC(=O)OCc2csc(CC(=O)Nc3ccccc3C)n2)cc1	3.1%	1.4	/	20%[15.4 µM]	1%	/	/
COc1ccc(C(CNC(=O)c2c(C)nn(Cc3ccccc3)c2Cl)N2CCOCC2)cc1 (configuration not stated)	0.9%	-3.4	/	?	-4%	-3.4%	/
O=C(NC1CCCCC1)C(c1ccccc1)N(Cc1ccco1)C(=O)Cn1cnc2ccccc21 (configuration not stated)	-1.0%	-4.5	4.4	30%	-4%[15.4 µM]	-2.4%	-7%
CCCCNS(=O)(=O)c1cccc(S(=O)(=O)N2CCCC2)c1	0.8%	-0.4	0.8	-48%[inhibitor]	6%	-12%	8%
O=[N+]([O-])c1ccc(COc2ccc(CN3CCCCC3)cc2)cc1	1.7%	0.6	/	/	12%	0.3%	/
C[C@H](CO)N1C[C@H](C)[C@H](CN(C)S(=O)(=O)c2cccc(F)c2)OCc2ccccc2-c2c(n(C)c3ccccc23)C1=O	-0.7%	-4.4	/	-74%[inhibitor]	/	-8.3%	/
COc1ccccc1-c1nnn(C/C(N)=N/O)n1	0.1%	-1.1	7.9	-37%[inhibitor]	14%	1.2%	18%
Cc1c(C)n(C(=O)CN2CCN(c3ccccn3)CC2)c2ccccc12	6.0%	0.9	0.0	8%	3%	-15%	4%
CC(=O)N=c1sc2nc3ccccc3nc2n1N(C(C)=O)C(C)=O	0.0%	-4.9	0.0	?	-13%	28µM*	45µM*
O=C(COC(=O)c1ccc([N+](=O)[O-])cc1Cl)Nc1cccnc1Cl	-0.8%	11	/	-11%[15.4 µM]	6%	/	/
COc1ccc(S(=O)(=O)N2CCCCC2)cc1NS(=O)(=O)c1ccccc1F	-1.2%	1.9	-4.8	-2%[15.4 µM]	/	/	26%
O=C(NN=C1CCN(Cc2ccccc2)CC1)C(O)c1ccccc1 (configuration not stated)	0.3%	-1.7	1.3	-32%[inhibitor]	-16%	1.3%	14%
COc1ccccc1NS(=O)(=O)c1cccc(NC(=O)Nc2cccc(Cl)c2)c1	2.9%	3.4	3.0	-12%	32µM*	-2.3%	22%
O=c1[nH]c(N2CCOCC2)cc2ccccc12	0.2%	-3.0	/	?	-2%	3.4%	/
CCN1C[C@@H]2[C@@H]3C(=O)N(Cc4ccccc4)C(=O)[C@@H]3[C@](C)(C1=O)N2C(=O)c1ccc(Br)cc1	0.5%	-0.7	/	/	-2%	0.0%	/
Cc1ccc(S(=O)(=O)N2CCCCC2)cc1NC(=O)C1CC1	0.1%	-1.3	/	-5%[15.4 µM]	1%	-0.8%	/
COC(=O)c1ccc(Oc2nc(Nc3ccc(F)cc3)nc(N3CCCC3)n2)cc1	9.6%	-0.8	3.3	-1%	-7%	-2.6%	-1%
Cc1onc(-c2ccccc2)c1C(=O)Nc1ccc(S(=O)(=O)NC2=NCCCCC2)cc1	-1.2%	-4.1	-0.4	5%	9%	-0.6%	24%
CC1=[N+](C)c2ccc3ccccc3c2C1(C)C	?	0.8	/	8%	1%	-25%	?
O=C1NC2(CCCCC2)N=C1c1ccccc1	-0.6%[38.3 µM]	-1.7	-0.9	-4%	-2%	4.8%	10%
CCCC(=O)N1c2ccccc2[C@@H](N(C(C)=O)c2ccccc2)C[C@H]1C	-1.5%	1.8	1.8	-4%	0%	-18%	16%
CCN(CC)CCCNC(=O)c1ccc2c(Cl)c3c(nc2c1)CCCC3	-1.7%&-1.8%	-1.3	-5.1	-19%[15.4 µM]	11%	-0.3%	11%
C#CCOC(=O)CCCNc1ccc([N+](=O)[O-])cc1[N+](=O)[O-]	-0.5%	7.8	7.3	33%	-7%	0.5%	7%
CCCCNC(=S)NNC(=O)c1csc(C)c1	-2.4%	-6.2	-0.3	0%	10%	2.8%	17%
Cc1ccc(S(=O)(=O)CC(=O)Nc2nnc(C)s2)cc1	2.1%	6.8	-7.7	-14%	-11%	/	6%
Cc1ccc(S(=O)(=O)N2CCOCC2)cc1C(=O)NC(C)CCc1ccccc1 (configuration not stated)	1.1%	0.5	/	-15%	0%	0.1%	/
CCC(CC)c1nnc(NC(=O)c2cccc(S(=O)(=O)N3CCOCC3)c2)s1	1.6%	-0.4	/	7%[15.4 µM]	-26%	-0.3%	/
Cc1ccc(-c2nc(SCC(=O)N(C)c3c(N)n(Cc4ccccc4)c(=O)[nH]c3=O)n[nH]2)cc1	3.4%	-2.0	/	-40%[inhibitor]	2%	0.3%	-6%
Cc1nn2cc(-c3ccc(N)cc3)nc2s1	0.4%[38.3 µM]	0.1	-0.3	5%	-13%	-0.5%	5%
O=C(Nc1sc(-c2ccccc2)cc1C(=O)O)c1ccccc1	-0.7%	3.0	6.6	0%	?	-9.8%	-11%
CCO[C@@H]1OC(C(N)=O)=C[C@H](C2CC2)[C@H]1CCCO	0.2%	-4.0	/	/	10%	0.6%	/
COc1ccccc1N1CCN(C(=O)c2ccc3[nH]c4c(c3c2)CCCC4)CC1	1.3%	-1.6	-3.5	0%	-20%	-5.0%	-21%
COC(=O)C(Cc1ccccc1)NC(=O)c1cccc(S(=O)(=O)N(C)C)c1 (configuration not stated)	1.2%	1.0	5.7	-4%[15.4 µM]	/	/	7%
CCOC(=O)CSc1nnc(-c2ccc([N+](=O)[O-])cc2)o1	0.5%	-0.1	6.3	-2%[15.4 µM]	-3%	/	3%
Cc1nc2cc(C(F)(F)F)ccc2n1CCNc1nc(-c2ccc(F)cc2)cs1	6.8%	3.0	1.7	3%	-1%	-2.8%	-7%
CC(C)C(c1nnnn1C1CCCC1)N1CCN(c2ccccc2F)CC1 (configuration not stated)	9.5%	-1.3	-1.4	17%	-7%	-1.5%	?
CC(=O)Oc1ccc(-c2ccc(C(=O)Nc3cccc(S(=O)(=O)N4CCOCC4)c3)cc2)cc1	-0.1%	9.4	1.8	12%[15.4 µM]	/	/	22%
CCC(=O)NC(Nc1cc(C)cc(C)n1)(C(F)(F)F)C(F)(F)F	-0.8%	1.2	-2.3	-48%[inhibitor]	-10%	-6.8%	10%
c1ccc(COC2CCCN(Cc3nc(-c4cccs4)no3)C2)nc1 (configuration not stated)	0.0%	-11	-0.8	-2%[15.4 µM]	7%	/	-1%
O=C(NC(Cc1ccccc1)C(=O)O)/C(=C/c1ccco1)NC(=O)c1cccc([N+](=O)[O-])c1 (configuration not stated)	2.2%	-0.4	-0.1	2%	?	?	7%
Cc1ccc(S(=O)(=O)N2CCC(C(=O)NCCCOC(C)C)CC2)cc1	-3.0%[38.3 µM]	-2.3	-1.2	-54%[inhibitor]	3%	0.4%	-4%
COC(=O)c1cccc(NC(=O)NC(=O)c2ccccc2Cl)c1	?	0.9	-2.0	22%	4%	/	7%
CC(C)OC(=O)Cn1cnc2ccc(Br)cc2c1=O	2.3%	-2.2	6.2	1%	10%	-3.2%	15%
CCc1nnc2c(NCCc3ccc(OC)c(OC)c3)nc3ccccc3n12	6.9%&-1.1%	2.9	2.7	8%	7%	?	6%
Oc1c(Br)cc(Br)cc1C=Nc1cccc2ncccc12	1.7%	-8.2	/	23%	?	0.4%	/
COc1ccc(-c2csc(N3CCN(Cc4ccc5c(c4)OCO5)CC3)n2)cc1	0.1%[38.3 µM]	-0.4	0.0	-51%[inhibitor]	?	-3.5%	0%
O=C(c1cccs1)N1CCN(C(=O)C(c2ccccc2)c2ccccc2)CC1	0.4%	1.6	3.0	1%	-23%	-1.1%	27%
CCC1(C)Cc2c(C#N)c(N)n(-c3ccccc3)c(=S)c2CO1 (configuration not stated)	-0.3%	2.9	0.6	-10%[15.4 µM]	/	/	10%
CN(CC(=O)NCCc1ccc(F)cc1)Cc1ccccc1	-0.6%	1.1	0.7	2%[15.4 µM]	13%	/	10%
CCOC(=O)C1CCCN(C(=O)c2sc3nc(-c4ccc(OC)cc4)cn3c2C)C1 (configuration not stated)	/	1.0	1.8	2%	-20%	1.3%	-4%
Cc1ccccc1CC(=O)N1CCN(S(=O)(=O)c2cccs2)CC1	-0.5%	-3.4	/	9%	-8%	-0.3%	2%
Nc1ccc(Oc2ncccn2)c(Cl)c1	-2.6%	6.6	-1.4	?	4%	-2.7%	7%
COc1ccc(OC)c(CNc2ncc(-c3ccc(F)cc3)n2C)c1	6.3%	-7.9	-5.5	-10%	2%	-6.3%	-26%
CCCNC(=O)c1ccccc1NS(=O)(=O)c1ccc(OC)c(OC)c1	1.5%	-0.4	5.2	-29%	-1%	32µM*	22%
CCc1nc2ccc(C(=O)Nc3ccc4c(c3)OCC(=O)N4)cn2c1N(CC)Cc1cccc(Br)c1	6.0%	-3.5	/	/	/	-12%	/
Oc1ccc[n+](CC(O)c2ccccc2)c1 (configuration not stated)	-0.3%	-3.7	/	5%	-7%	-12%	/
Cn1c(SCC(=O)Nc2cccc(NC(=O)c3cccs3)c2)nnc1-c1ccncc1	-1.3%	0.4	-2.0	-18%	-13%	1.8%	2%
CNC[C@H](Cc1ccccc1)NC[C@@H](Cc1cccc2ccccc12)NCCc1ccc(C)cc1	-1.3%	0.1	2.8	/	-5%	-5.9%	50µM*
